Bioassay records from PubChem.
Rce1 inhib = inhibitors of yeast Ras-converting enzyme. AID 2563. calls only. 290,000 tested, 0.27% active. yeast membranes, quenched prenylated peptide cleavage fluorescence. Q03530;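 active means fall in fluorescence gain of 50% or more versus controls, with final raw signal at or below 3038400; inconclusive means same 50% fall but final raw signal above 3038400; inactive means fall in fluorescence gain under 50%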;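 further: plate controls were neutral control wells for no effect and wells lacking membranes for full effect; tested at 10 µM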
Target sequence (Q03530 whole entry, looked up): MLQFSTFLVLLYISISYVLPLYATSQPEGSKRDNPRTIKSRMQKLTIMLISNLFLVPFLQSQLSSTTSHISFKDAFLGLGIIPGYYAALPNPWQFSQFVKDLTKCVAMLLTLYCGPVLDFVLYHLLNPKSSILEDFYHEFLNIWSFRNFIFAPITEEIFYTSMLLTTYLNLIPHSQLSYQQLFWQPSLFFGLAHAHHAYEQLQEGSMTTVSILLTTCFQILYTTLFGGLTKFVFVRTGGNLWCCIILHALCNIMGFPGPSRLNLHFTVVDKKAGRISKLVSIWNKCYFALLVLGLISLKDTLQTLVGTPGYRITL
Env fusion inh = inhibitors of HIV Env-mediated cell fusion; inhibition, % at 12.3 µM; AID 651610; HeLa-JRFL Env/CEM21 cell fusion, luciferase; 360,000 tested, 1.1% active;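 active means mean replicate inhibition score of at least 50 and every replicate individually at or above 50; inconclusive means only one of the two criteria met; inactive means mean below 50 and not all replicates reaching 50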;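 further: 0% = plate neutral controls and 100% = maraviroc near 300 nM; one replicate is shown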
MT1-MMP act inh = inhibitors of human MT1-MMP activation; HT1080 RFP-PRO-GFP cells, GFP/RFP ratio fluorescence, overnight; percent of plate control window, DMSO zero; GFP/RFP ratio change, % at 20 µM; P50281; 360,000 tested, 0.061% active;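 active means GFP/RFP ratio change of at least 30% with cell ATP level not reduced by more than half and red fluorescence within 50% of control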; further: strong numbers were not always called active
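Material – HT1080 RFP-PRO-GFP cells · Control set – DMSO wells and RFP-L50D-GFP cells · Incubation – overnight cell settling, then overnight compound exposure, 37 °C, 5% CO2 · Compound dosing – single-point 20 µM compound, 1% DMSO · Read-out – GFP/RFP fluorescence ratio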
eIF4H FP inh = inhibitors of RNA binding by human eIF4H; inhibition, % at 35 µM; eIF4H fluorescence polarization binding assay; Q15056; 290,000 tested, 0.94% active;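 active means 50% or more with normal probe brightness, or confirmed in later tests; inconclusive means above 50% with abnormal brightness, or retests that disagree; inactive means below 50% or failed in later tests; about a fifth of its hits are not listed in these tables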;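 further: calls also rest on retests at 20 µM and on dose response follow-up; 0% = protein and probe with vehicle and 100% = probe without protein; strong numbers were not always called active; many hits fall short of the cut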
PABP FP inh = blocks human PABP binding to poly(A) RNA. fluorescence polarization. P11940. 290,000 tested, 1% active. AID 2014. inhibition, % at 35 µM;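 active means 50% or more with normal probe brightness, or confirmed in later tests; inconclusive means above 50% with abnormal brightness, or retests that disagree; inactive means below 50% or failed in later tests; about a fifth of its hits are not listed in these tables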;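 further: calls also rest on retests at 20 µM and on dose response follow-up; controls were probe without protein and protein plus probe with vehicle; some compounds called inactive have numbers as strong as hits; many hits fall short of the cut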
UUG fidelity = modulators of start codon recognition fidelity in yeast; S. cerevisiae UUG-firefly luciferase reporter, luminescence/redox ratio; activity score, % at 18.7 µM; 350,000 tested, 0.13% active;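 active means replicate mean at a twofold rise or more, about +100% in these data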;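 further: firefly luciferase made from a UUG start codon reports start codon fidelity; reporter light over untreated wells divided by growth signal over untreated wells; some hits fall short of that in this replicate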
CSC inhib = blocks cancer stem cells; inhibition, % at 7.5 µM; 300,000 tested, 1.1% active; cancer stem cell-like cells viability, luminescence;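 active means mean at 75% or more and at least half the replicates too; inconclusive means mean and replicates disagree; tested in HMLE shEcad cells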;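 further: 0% = median of negative and 100% = median of positive control wells; the first replicate is given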
eIF4H FP inh retest = further read-out of eIF4H FP inh, marked with its call; inhibition, %; compound at 20 µM; confirmation average;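 mean of two retest wells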
PABP FP inh retest = also measured in PABP FP inh; calls as there; inhibition, %; compound at 20 µM; confirmation repeats;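 mean of two retest wells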
MT1-MMP act inh RFP = second read-out of MT1-MMP act inh, no call of its own (marks repeat the call); RFP signal change, %; measured here: RFP expression control read;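 0 = vehicle wells; hits needed this value within 50% of zero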
The depositor's hits bear a star; i = inactive; ? = inconclusive; · = not tested or not shown; + = active, no number.

SMILES | Rce1 inhib | Env fusion inh | MT1-MMP act inh | MT1-MMP act inh RFP | eIF4H FP inh | PABP FP inh | UUG fidelity | CSC inhib | others
O=C(COC(=O)c1ccccn1)NNC(=O)c1ccc([N+](=O)[O-])cc1 | i | 10 | 4 | 7 | · | · | -23 | -4
Cc1c(C)c2c(OCC(=O)N[C@@H](CC(C)C)C(=O)O)cc3c(c2oc1=O)CCC(C)(C)O3 | ? | 8 | -10 | -5 | 5 | 0 | 9 | -14
CCOC(=O)Cn1cnc2c(nnn2-c2ccc(OC)cc2)c1=O | i | -29 | -2 | 1 | 7 | 0 | 1 | -15
O=C(O)CSc1nnc(CNc2ccccc2Cl)n1-c1ccccc1 | i | 10 | 1 | 1 | 3 | 17 | -22 | -7
CC(NC(=O)CCC(=O)NCc1ccc(F)cc1)c1ccccc1 (centres undefined) | i | -4 | -3 | 0 | -9 | 4 | 3 | -15
Cn1cc(C(=O)C(=O)N2CCc3ccccc32)c2ccccc21 | i | -18 | 0 | -1 | 1 | -1 | 0 | -1
COCCn1c(SCC(=O)NCCc2ccccc2)nc2c([nH]c3ccccc32)c1=O | i | · | -1 | 0 | 101 | 0 | -15 | 1 | eIF4H FP inh retest=-4;PABP FP inh retest=20
O=C(Nc1nncs1)C12CC3CC(CC(Cl)(C3)C1)C2 | i | 35 | -7 | -3 | -13 | 0 | -18 | 0
COc1ccc(/C=N/Nc2nc3ccccc3[nH]2)c(OC)c1OC | i | -87 | 7 | 1 | 10 | -21 | · | 3
CC1CN(C(=O)COC(=O)c2ccc(S(=O)(=O)N(C)C)cc2)CC(C)O1 (centres undefined) | i | -3 | -1 | 1 | -5 | -4 | -10 | ·
CC1CCN(Cc2c(C(=O)N/N=C/c3cccc(C(F)(F)F)c3)nnn2-c2nonc2N)CC1 | + | 18 | -6 | -4 | 2 | -1 | 0 | -20
CCCCOc1ccc(C(=O)NCC(=O)NNC(=O)c2ccco2)cc1 | · | 4 | 2 | 2 | · | · | · | -10
CN(C)c1ccc(C(C(=O)NC2CCCCC2)N(Cc2ccco2)C(=O)c2snc(C(N)=O)c2N)cc1 (centres undefined) | i | 11 | -16 | -5 | -20 | -1 | -13 | 10
CCOC(=O)CN1C(=O)C(=O)c2cccc(C)c21 | i | 11 | 1 | 6 | -3 | -12 | -16 | -2
CCCNC(=O)[C@H](Cc1c[nH]c2ccccc12)NC(=O)c1ccccc1Cl | i | · | 0 | 3 | -17 | 5 | · | 12
Cc1cccc(N2C(=O)Cc3ccccc3C2=O)c1 | i | 21 | -3 | 0 | -3 | -1 | -12 | -5
COc1ccc([C@@H]2CC(=O)c3c(O)cc(O)cc3O2)cc1O | · | -53 | -4 | -9 | · | · | -8 | 2
CCN(CC)CCN(Cc1cc2cc3c(cc2[nH]c1=O)OCO3)C(=S)NCCOC | i | -113 | 3 | 3 | 6 | 9 | -19 | 12
Cc1ccc(-c2nnc(SCC(=O)N3CCN(c4ccccc4)CC3)o2)cc1 | i | -97 | -2 | -1 | 0 | -10 | -16 | -16
COc1ccc(OC)c(CC(NC(C)=O)C(=O)NC2CCN(c3c(Cc4ccccc4)c(C)nc4ncnn34)CC2)c1 (centres undefined) | i | -43 | 9 | 2 | -6 | -9 | · | -23
COc1ccccc1NC(=O)c1ccc(NC(=O)CSc2nncn2C)cc1 | i | -19 | 2 | 7 | 2 | -18 | · | 8
Cc1c(N=Cc2nc3ccccc3n2C)c(=O)n(-c2ccccc2)n1C | i | 11 | 2 | 7 | -2 | 0 | 11 | -25
CN(C)c1ccc(/C=C2\CCCCC2=O)cc1 | i | -32 | -5 | 0 | -8 | -15 | · | -4
COc1ccccc1C(=O)NCC(=O)N1CCN(S(=O)(=O)c2ccc3c(c2)OCCO3)CC1 | i | -5 | -2 | 3 | · | · | 10 | -12
O=C(N/N=C/c1ccc[nH]1)c1ccc2c(c1)OCO2 | i | -9 | 1 | 1 | 18 | -14 | · | 0

Part of the list above in order of formula weight, highest first:
SMILES | Rce1 inhib | Env fusion inh | MT1-MMP act inh | MT1-MMP act inh RFP | eIF4H FP inh | PABP FP inh | UUG fidelity | CSC inhib | others
COc1ccc(OC)c(CC(NC(C)=O)C(=O)NC2CCN(c3c(Cc4ccccc4)c(C)nc4ncnn34)CC2)c1 (centres undefined) | i | -43 | 9 | 2 | -6 | -9 | · | -23
COc1ccccc1C(=O)NCC(=O)N1CCN(S(=O)(=O)c2ccc3c(c2)OCCO3)CC1 | i | -5 | -2 | 3 | · | · | 10 | -12
CCN(CC)CCN(Cc1cc2cc3c(cc2[nH]c1=O)OCO3)C(=S)NCCOC | i | -113 | 3 | 3 | 6 | 9 | -19 | 12
Cc1ccc(-c2nnc(SCC(=O)N3CCN(c4ccccc4)CC3)o2)cc1 | i | -97 | -2 | -1 | 0 | -10 | -16 | -16
CCCNC(=O)[C@H](Cc1c[nH]c2ccccc12)NC(=O)c1ccccc1Cl | i | · | 0 | 3 | -17 | 5 | · | 12
CCCCOc1ccc(C(=O)NCC(=O)NNC(=O)c2ccco2)cc1 | · | 4 | 2 | 2 | · | · | · | -10
O=C(COC(=O)c1ccccn1)NNC(=O)c1ccc([N+](=O)[O-])cc1 | i | 10 | 4 | 7 | · | · | -23 | -4
COc1ccc(/C=N/Nc2nc3ccccc3[nH]2)c(OC)c1OC | i | -87 | 7 | 1 | 10 | -21 | · | 3
Cn1cc(C(=O)C(=O)N2CCc3ccccc32)c2ccccc21 | i | -18 | 0 | -1 | 1 | -1 | 0 | -1
COc1ccc([C@@H]2CC(=O)c3c(O)cc(O)cc3O2)cc1O | · | -53 | -4 | -9 | · | · | -8 | 2
Cc1cccc(N2C(=O)Cc3ccccc3C2=O)c1 | i | 21 | -3 | 0 | -3 | -1 | -12 | -5

The results go on.
SMILES | Rce1 inhib | Env fusion inh | MT1-MMP act inh | MT1-MMP act inh RFP | eIF4H FP inh | PABP FP inh | UUG fidelity | CSC inhib | others
COc1ccc(CNC(=O)C2C3C=CC4(CN(Cc5cccnc5)C(=O)C24)O3)cc1 (centres undefined) | i | -19 | -2 | 1 | -8 | -2 | -11 | -8
CP(=O)(Nc1cc(Cl)ccc1Cl)c1nc2c(s1)CCCC2 (centres undefined) | i | 8 | 4 | 2 | -1 | 3 | -16 | -16
CC(C)N(C(=O)[C@H]1C[C@H](CC(=O)NCCN2CCOCC2)C(=O)N2CCc3c([nH]c4ccc(Cl)cc34)[C@]12C)C(C)C | · | -9 | -1 | -2 | · | · | 19 | ·
CCN(CC)c1ccc(/C=N/Nc2nc(C)cc(C)n2)c(O)c1 | i | 3 | -20 | -3 | 83* | 17* | · | 30 | eIF4H FP inh retest=88*;PABP FP inh retest=67*
CC[C@H](C)[C@H](NC(=O)OCc1ccccc1)C(=O)OCC(=O)N1CCN(c2ccc(F)cc2)CC1 | · | 6 | -4 | -10 | · | · | -9 | ·
Cn1c(N)c(C(=O)c2ccccc2)c(=O)n(C)c1=O | i | · | 4 | 5 | -16 | 0 | 2 | 1
COc1ccccc1/C=C1\SC(N2CCC(C)CC2)=NC1=O | i | -25 | 8 | 3 | 6 | 7 | -11 | -1
CCN1CCN(C(=S)Nc2cccc([N+](=O)[O-])c2)CC1 | i | 8 | 3 | 5 | -1 | 10 | · | -3
NNC(=O)c1oc2nc(-c3ccccc3)cc(-c3ccco3)c2c1N | i | -1 | -53 | 7 | ? | ? | -11 | 10
O=C(CN1C(=O)NC2(CCCCCC2)C1=O)Nc1ccc([N+](=O)[O-])cc1 | · | -32 | -6 | 0 | · | · | -18 | -19
Cc1cccc(-n2nnnc2-c2cnccc2C(F)(F)F)c1C | i | -7 | 0 | -4 | -4 | 7 | · | -2
CCOC(=O)c1sc(NC(=O)Nc2ccccc2Cl)cc1C | i | i | 0 | -12 | 4 | 0 | -56 | 94*
CN1CCN(NC(=O)Nc2ccc(Br)cc2)CC1 | i | -5 | 0 | 0 | -12 | -12 | -17 | -8
Cc1ccsc1/C=N/NC(=O)c1ccc([N+](=O)[O-])cc1 | i | -30 | 6 | 1 | -9 | 42 | · | -4
Cc1ccc(C)c(OCCC(=O)OCC(=O)N(C)c2c(N)n(Cc3ccccc3)c(=O)[nH]c2=O)c1 | i | 8 | -4 | -2 | · | · | · | 1
O=C(CC(Nc1ccccc1)C(=O)O)c1ccccc1 (centres undefined) | i | · | -13 | -10 | -3 | 2 | -18 | -12
CCOC(=O)Cc1csc(NS(=O)(=O)c2ccc(C(F)(F)F)cc2)n1 | i | 4 | -1 | 1 | 0 | -6 | -10 | 16
COc1ccc(C(=O)c2c(O)cc(-c3ccc(OC)cc3)oc2=O)cc1 | i | 13 | -2 | 3 | -6 | -11 | · | -10
Cn1/c(=N/NC(=O)c2ccccc2F)sc2ccccc21 | i | -18 | -4 | -1 | -5 | -8 | · | ·
O=C(N/N=C\c1ccccc1F)c1ccc(-c2ccccc2)cc1 | i | -4 | 2 | 2 | -4 | -3 | -18 | -17
Cc1c(N=C2NC(=O)C(CC(=O)Nc3ccc(Cl)cc3)S2)c(=O)n(-c2ccccc2)n1C (centres undefined) | i | · | -2 | -3 | -4 | -2 | -8 | ·
C=CCn1c(=NC(=O)C2COc3ccccc3O2)sc2cccc(OC)c21 (centres undefined) | i | 22 | -6 | -1 | 11 | 3 | · | 8
COc1cccc(C2CC(C(F)(F)F)n3ncc(C(=O)NCC4CCCO4)c3N2)c1 (centres undefined) | i | · | 9 | -1 | -10 | -2 | -10 | -14
COc1ccc(NC(=O)CC(C(=O)O)C(C)c2ccccc2)cc1 (centres undefined) | i | -12 | -3 | 5 | -6 | 2 | -8 | -13
COc1cc2c(cc1OC)C(c1cccc([N+](=O)[O-])c1)=NCC2 | i | -4 | 2 | 4 | -5 | 4 | -22 | -8

Continued.
SMILES | Rce1 inhib | Env fusion inh | MT1-MMP act inh | MT1-MMP act inh RFP | eIF4H FP inh | PABP FP inh | UUG fidelity | CSC inhib | others
COCCNC(=O)CSc1cc(=O)n(C)c2cc(Cl)ccc12 | i | -11 | -2 | 4 | -3 | 7 | · | -13
O=C(COc1ccc2ccccc2c1)NN1C(=O)c2ccccc2C1=O | i | 8 | 1 | 3 | -4 | 13 | · | -11
Cc1ccc(/C=C(\C#N)C(=O)Nc2cccc3ncccc23)o1 | i | · | -4 | 7 | ? | 18 | 5 | 2
COc1cc(/C=N/NC(=O)CC#N)ccc1Oc1nc(Cl)ncc1F | i | 5 | 1 | 1 | 3 | 4 | -27 | -7
O=C1c2ccccc2NC(c2cn[nH]c2-c2ccc(Cl)cc2)N1O (centres undefined) | i | 18 | 5 | -6 | 11 | -8 | · | 6
C=CCOc1ccc(/C=C(\C#N)C(=O)Nc2ccccn2)cc1 | i | 1 | -1 | -2 | 3 | 7 | -13 | -7
CCCCC(=O)Nc1ccc(NC(=S)NC(=O)CCCCl)cc1OC | i | · | -1 | 3 | 6 | 2 | · | -10
COc1ccccc1-n1c(SCC(=O)N2CCCCC2)nc2cccnc21 | · | -59 | 3 | 6 | -3 | 1 | 4 | -12
O=C1COc2ccc(C(=O)COC(=O)Cc3ccccc3F)cc2N1 | i | 9 | 1 | 3 | 1 | -30 | · | 0
Cc1ccc2oc(=O)cc(CN3CCC(C)CC3)c2c1 | i | -40 | 2 | 1 | 9 | 3 | -12 | -9
